KCNQ2 pot: potentiators of rat KCNQ2 potassium channel; Potassium voltage-gated channel subfamily KQT member 2 (Rattus norvegicus), O88943; CHO-K1 KCNQ2, FluxOR thallium flux fluorescence; stronger effect = higher value; B-score at 10 µM; 310,000 tested, 0.54% active; AID 2239, 2010;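 active means fluorescence ratio B-score at least 3 SD of library B-scores, with initial fluorescence B-score within 3 SD, cut at about 5.3 in these data; same plate scores as AID 2156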;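 further: B-score of peak minus minimum over baseline fluorescence ratio after K+ and Tl+ stimulus; positive B-score means potentiation of KCNQ2 with more thallium influx and brighter signal; only the inactives scoring about 0 or higher are listed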
Target sequence (O88943 whole entry, looked up): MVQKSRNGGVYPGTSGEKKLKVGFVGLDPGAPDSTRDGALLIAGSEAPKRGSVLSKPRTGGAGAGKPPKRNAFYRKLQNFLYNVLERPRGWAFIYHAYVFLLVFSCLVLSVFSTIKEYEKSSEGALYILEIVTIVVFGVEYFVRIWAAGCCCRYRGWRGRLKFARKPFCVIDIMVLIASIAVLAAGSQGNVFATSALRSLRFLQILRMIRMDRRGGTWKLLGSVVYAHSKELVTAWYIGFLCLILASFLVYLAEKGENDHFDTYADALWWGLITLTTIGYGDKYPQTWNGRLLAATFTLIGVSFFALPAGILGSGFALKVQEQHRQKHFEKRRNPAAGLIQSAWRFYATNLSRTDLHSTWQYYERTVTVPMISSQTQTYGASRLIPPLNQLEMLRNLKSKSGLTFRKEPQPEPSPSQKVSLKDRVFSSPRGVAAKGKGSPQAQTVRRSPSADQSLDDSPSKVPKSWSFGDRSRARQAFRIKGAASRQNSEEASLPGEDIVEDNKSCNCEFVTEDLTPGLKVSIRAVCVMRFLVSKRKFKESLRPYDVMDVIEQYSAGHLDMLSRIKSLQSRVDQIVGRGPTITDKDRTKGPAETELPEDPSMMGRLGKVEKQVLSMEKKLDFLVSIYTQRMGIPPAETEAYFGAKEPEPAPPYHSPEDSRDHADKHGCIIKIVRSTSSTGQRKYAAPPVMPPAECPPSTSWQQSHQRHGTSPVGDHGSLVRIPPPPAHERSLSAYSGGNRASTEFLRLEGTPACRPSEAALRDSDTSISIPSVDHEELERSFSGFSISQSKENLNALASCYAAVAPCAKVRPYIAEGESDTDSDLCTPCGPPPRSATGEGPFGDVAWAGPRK
KCNQ2 pot baseline: second read-out of KCNQ2 pot, no call of its own (marks repeat the call); B-score; compound at 10 µM; measured here: initial fluorescence intensity artifact check;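 brightness before thallium and not channel activity; 0 = typical well and far values either way flag optical interference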
Numbers without * were called inactive.

SMILES | KCNQ2 pot | KCNQ2 pot baseline
Cn1c(C2CCCCC2)nc2c1c(=O)[nH]c(=O)n2Cc1ccccc1 | 1.9 | 0.67
CCOc1ccccc1Nc1nnc(SCC(=O)N2CCCC2)s1 | 0.67 | -0.71
Cc1nc(C)c(C(=O)C2=C(O)C(=O)N(CCCn3ccnc3)C2c2ccc(Cl)cc2)s1 (stereo not given) | 5.2 | 0.94
CCCc1cc(=O)[nH]c(SCC(=O)N(CC)Cc2ccccc2)n1 | 2 | -0.12
Cc1nnc(NC(=O)c2cccc(Br)c2)s1 | 0.82 | 0.7
O=C(/C=C/c1ccco1)c1cccnc1 | 0.09 | 0.24
Cc1cnc(C(=O)OCC(=O)NC(=O)NC(C)C)cn1 | 0.8 | 1.4
COc1ccccc1OC(C)C(=O)Nc1nc(-c2ccc(S(=O)(=O)N3CCOCC3)cc2)cs1 (stereo not given) | 0.3 | -0.03
O=C(c1ccco1)N1CCCN(Cc2nc(-c3cccs3)no2)CC1 | 0.03 | -1.5
CC(=C/c1ccc(C(C)C)cc1)/C=N/NC(=O)c1ccncc1 | 0.7 | 2.5
CCOC(=O)c1ccc(CNC(=O)Cn2nnc(-c3cccc(C)c3)n2)o1 | 1.5 | 0.5
Cc1cc(CCN2CCC(=O)NC2=S)ccc1OC(C)C | 0.5 | -0.04
COCCN1CCN(C(=O)c2ccc3oc(CCCc4ccccc4)nc3c2)CC1 | 0.09 | 0.48
COc1ccc(Cl)cc1-c1nc(-c2ccc(Br)o2)no1 | 1.3 | 0.6
Cc1ccc(-c2nnc(COC(=O)c3ccco3)o2)cc1 | 0.02 | 1.7
Cc1ccc(NC(=O)C2C3C=CC4(O3)C2C(=O)N(CCCN2CCCCC2)C4C(=O)NC2CCCCC2)cc1C (stereo not given) | 0.71 | 0.49
O=C(c1cccc(F)c1)N1CCN(C(=O)C2CC2)CC1 | 1.3 | -1.1
O=C(c1ccco1)N1CCN(C(=O)c2oc(=O)c3ccccc3c2-c2ccccc2)CC1 | 0.06 | 1.2
O=C(Nc1nc2c(s1)C(=O)CCC2)c1ccccc1 | 1.4 | 0.14
CCC(CO)NC(=O)c1ccccc1C(F)(F)F (stereo not given) | 1.1 | -0.67

The final 2 entries of the section before lead into the next.
SMILES | KCNQ2 pot | KCNQ2 pot baseline
O=C(Nc1nc2c(s1)C(=O)CCC2)c1ccccc1 | 1.4 | 0.14
CCC(CO)NC(=O)c1ccccc1C(F)(F)F (stereo not given) | 1.1 | -0.67
CCN1CCN(CCCNC(=O)Cn2cc3c(n2)CCCC3)CC1 | 1.2 | -1.3
Cc1ccc(NC(=O)C2CC(=O)n3ncnc3N2)cc1C (stereo not given) | 0.55 | 0
COc1ccc(/C=N/n2cnnc2SCc2ccc(OC)cc2)cc1 | 0.65 | -0.48
COCCn1c(SCC(=O)N2CCCCCC2)nc2c([nH]c3ccccc32)c1=O | 0.85 | -0.84
Cc1ccccc1CS(=O)(=O)c1ccc(C(=O)N2CCC(C)CC2)cc1[N+](=O)[O-] | 0.64 | -1.7
CC(SCc1ccccc1)C(=O)Nc1ccccc1 (stereo not given) | 0.6 | 0
COc1ccc(C(=O)N2CCN(CCNC(=O)C(=O)Nc3ccc(F)cc3)CC2)cc1 | 0.52 | -0.05
CCN1CCN(C(c2cccs2)C(C)NS(=O)(=O)c2ccc(Br)cc2)CC1 (stereo not given) | 1.1 | 1
CCCCNC(=S)NCc1ccc2[nH]c3c(c2c1)CCCC3 | 1.2 | -1.7
O=C(Nc1cccc(-c2nc3ncccc3o2)c1)c1ccccc1 | 0.91 | 0.39
CC(=O)Nc1ccc(S(=O)(=O)N(C)CC(=O)OC(C)C(=O)NC2CCCCC2)cc1 (stereo not given) | 0.84 | -0.15
CCOC(=O)C1=C2c3cc(OC)c(OC)cc3CC(C)(C)N2C(=O)C1=O | 1.4 | -0.88
O=C(O)Cc1ccc(NC(=O)c2ccc3c(c2)C(=O)N(Cc2ccco2)C3=O)cc1 | 0.72 | -1.2
CCOc1ccc2[nH]c3c(N4CCN(C(=O)c5ccco5)CC4)ncnc3c2c1 | 0.13 | 2.6
CCCS(=O)(=O)N1CCN(C(=O)COc2ccc(OC)cc2)CC1 | 2.6 | 0.14
CN(CC(=O)N1CCN(C2CCCCC2)CC1)S(=O)(=O)c1cccc2nsnc12 | 0.78 | 0.78
COCCNC(=O)COC(=O)c1ccc(OCC(=O)Nc2ccccc2OC)c(OC)c1 | 0.8 | -3
CC(=O)NC1C(=O)N=C(SCC(=O)Nc2ccc(C(F)(F)F)cc2Cl)NC1=O (stereo not given) | 0.97 | -0.23
O=C1c2ccccc2C(=O)N1c1ccc(Cl)cn1 | 0.13 | 1.6
CN(Cc1ccccc1)c1nc(N)nc(Cl)c1C=O | 0.88 | 0.13
CC(C)c1ccccc1NS(=O)(=O)N(C)C | 0.86 | 0.18
COCCN(C(=O)CCC(=O)Nc1cc(C)on1)C(C(=O)NC(C)(C)C)c1ccc(OC)cc1 (stereo not given) | 1.7 | -0.09
CCCn1c(N)c(C(=O)COC(=O)CCNS(=O)(=O)c2ccccc2F)c(=O)[nH]c1=O | 0.44 | -1.6
CCOC(=O)c1c(-c2ccccc2)cn2c(C)cc(C)nc12 | 1.9 | -2.7
COc1ccc(NC2CCCN(C(=O)c3ccc(C)nc3)C2)cc1 (stereo not given) | 0.59 | -0.17
Cc1nc2ccc(NC(=O)c3ccc([N+](=O)[O-])cc3)cc2s1 | 1.9 | 2.4
O=C(O)C1CCCCC1C(=O)NCCCN1CCCC1=O (stereo not given) | 1.9 | 2
CCC(C)(C)n1nnnc1C(C(C)C)N1CCN(C(=O)c2ccco2)CC1 (stereo not given) | 0.08 | 0.04
CCOc1cc(C(=O)N/N=C(\C)Cc2ccc(OC)cc2)cc(OCC)c1OCC | 1.4 | -2.3
C=CCOc1ccc(CN(C)C(=O)C2CCCO2)cc1 (stereo not given) | 0.27 | 0.2
Nc1ccc(S(=O)(=O)NNC(=O)C(=O)NNc2ccccn2)cc1 | 0.61 | -0.01
Cc1c(NC(=O)COC(=O)C(c2ccc(Cl)cc2)C(C)C)c(=O)n(-c2ccccc2)n1C (stereo not given) | 0.58 | 0.75
O=C(NC(=S)NCc1cccnc1)c1ccccc1F | 1.3 | -0.51
CCNC(=O)/C(C#N)=C/c1c(N2CCN(C)CC2)nc2c(C)cccn2c1=O | 0.04 | -0.9
Cc1cc(=O)oc2cc(OCC(=O)NCCN3CCOCC3)ccc12 | 0.23 | 1.3
CC(=O)c1ccc(OCC(=O)NCC2(N3CCCCC3)CCCCC2)cc1 | 0.52 | -0.8
COc1cccc(C(=O)N2CCN(C(=O)COc3ccc4ccccc4c3)CC2)c1 | 0.01 | -0.69
CCOc1ccc(S(=O)(=O)Nc2ccc(C(=O)NCCCN3CCOCC3)cc2)cc1 | 0.64 | 0.01
CC(=O)Cn1ncc(N2CCOCC2)cc1=O | 0.44 | 2.6
COc1ccccc1C(=O)N(CCC1CCCN1C)c1nc2ccccc2s1 (stereo not given) | 1.1 | 1.5

13 structures out of the list, arranged by count of non-hydrogen atoms, low to high.
SMILES | KCNQ2 pot | KCNQ2 pot baseline
CC(C)c1ccccc1NS(=O)(=O)N(C)C | 0.86 | 0.18
CC(=O)Cn1ncc(N2CCOCC2)cc1=O | 0.44 | 2.6
C=CCOc1ccc(CN(C)C(=O)C2CCCO2)cc1 (stereo not given) | 0.27 | 0.2
O=C(O)C1CCCCC1C(=O)NCCCN1CCCC1=O (stereo not given) | 1.9 | 2
Cc1nc2ccc(NC(=O)c3ccc([N+](=O)[O-])cc3)cc2s1 | 1.9 | 2.4
Nc1ccc(S(=O)(=O)NNC(=O)C(=O)NNc2ccccn2)cc1 | 0.61 | -0.01
Cc1cc(=O)oc2cc(OCC(=O)NCCN3CCOCC3)ccc12 | 0.23 | 1.3
CC(=O)c1ccc(OCC(=O)NCC2(N3CCCCC3)CCCCC2)cc1 | 0.52 | -0.8
CCNC(=O)/C(C#N)=C/c1c(N2CCN(C)CC2)nc2c(C)cccn2c1=O | 0.04 | -0.9
COc1cccc(C(=O)N2CCN(C(=O)COc3ccc4ccccc4c3)CC2)c1 | 0.01 | -0.69
CCOc1ccc(S(=O)(=O)Nc2ccc(C(=O)NCCCN3CCOCC3)cc2)cc1 | 0.64 | 0.01
Cc1c(NC(=O)COC(=O)C(c2ccc(Cl)cc2)C(C)C)c(=O)n(-c2ccccc2)n1C (stereo not given) | 0.58 | 0.75
COCCN(C(=O)CCC(=O)Nc1cc(C)on1)C(C(=O)NC(C)(C)C)c1ccc(OC)cc1 (stereo not given) | 1.7 | -0.09

(list continues)
SMILES | KCNQ2 pot | KCNQ2 pot baseline
CCCCCCn1c(NCC)nc2c1c(=O)[nH]c(=O)n2C | 1.3 | -0.33
S=C(NCc1ccco1)N1CCC(c2nc3ccccc3o2)CC1 | 0.59 | -2.2
CCOc1ccc(CNS(=O)(=O)c2ccc(-c3ccc(=O)[nH]n3)o2)cc1OC | 0.29 | -1.4
CCN1CCN(C(=O)c2cc(=O)c3cc(C)ccc3o2)CC1 | 0.24 | 0.58
COc1ccc(NC(=O)N2CCCCCC2)c(OC)c1 | 1 | 0.18
O=C(COC(=O)Cc1ccsc1)NCC1CCCCC1 | 0.65 | -0.04
c1ccc(CNC23CC4CC(CC(C4)C2)C3)nc1 | 1.7 | 1.5
Cc1cc(S(=O)(=O)N2CCOCC2)ccc1OCC(=O)N1CCC(C(N)=O)CC1 | 0.05 | 1.8
CCCCNC(=O)c1onc(CSc2cc(C)ccc2C)c1C(=O)O | 0.3 | 0.66
CCOCCn1c(SC)nc2c1c(=O)[nH]c(=O)n2C | 1.5 | 1.2
CCC1=NN(C(=O)Cc2ccc([N+](=O)[O-])cc2)C(O)(C(F)(F)F)C1 (stereo not given) | 2.7 | -0.09
CCc1ccc(C(=O)CSc2nc(C)cc(=O)[nH]2)cc1 | 1.3 | -0.68
COc1ccc(NC(=O)/C=C/c2ccc(OC(F)F)cc2)cn1 | 0.67 | -0.04
Cc1ccc(S(=O)(=O)c2nnn3c2nc(N2CCC(C(N)=O)CC2)c2ccccc23)cc1 | 0.14 | -0.59
CCn1c(/C=C/c2ccc(F)cc2)nc2ccccc2c1=O | 0.22 | -0.15
COc1ccc(CC(=O)N2CC(C)CC(C)C2)cc1OC (stereo not given) | 0.07 | 0.23
O=C(COC(=O)Cn1[nH]c(=O)c2ccccc2c1=O)Nc1c(Cl)cccc1C(F)(F)F | 0.04 | -2.3
COc1ccc(N2CCc3c(C)nc4c(OC)cc(OC)cc4c32)cc1 | 1.2 | 0.03
COCCCNC(=O)c1cc2c(=O)n(C)c3ccccc3c2n1C | 0.39 | -0.93
O=C(Nc1ccc2ncccc2c1)c1ccccc1 | 0.65 | -0.66
CC(C)Cn1cc(F)c(=O)n(CC(C)C)c1=O | 0.6 | -0.49
COc1ccc(OCC(=O)Nc2ccc(S(=O)(=O)N3CCCC3)cc2)cc1 | 1 | -0.82
CC(=O)c1cccc(Nc2nc(-c3sc(C)nc3C)cs2)c1 | 0.73 | -4.4
NS(=O)(=O)c1ccc(CCNC(=O)C(c2ccccc2)c2ccccc2)cc1 | 1.3 | 0.02
O=C(CN1CCN(CC(=O)Nc2ccc(-c3ccccc3)cc2)CC1)Nc1ccc(F)cc1 | 0.43 | 0
Cc1ccc(-n2nc3c(c2NC(=O)c2c(-c4ccccc4Cl)noc2C)CS(=O)(=O)C3)c(C)c1 | 1.3 | 2.7
CCCNC(=O)c1ccccc1NC(=O)c1ccc2c(c1)NC(=O)C(C)S2 (stereo not given) | 0.01 | 0.01
Cc1cccc(NC(=O)/C=C/c2ccc3c(c2)OCO3)n1 | 0.73 | 2.6
O=C(N/N=C\c1ccncc1)c1ccc(Br)s1 | 0.67 | 3.2
COc1ccc(C2CC(=O)NC3=C2C(=O)CCC3)cc1Cl (stereo not given) | 0.01 | 0.33
CS(=O)(=O)N1CCC(Oc2ccccc2C(=O)N2CCC[C@H]2CO)CC1 | 1.4 | 0.2
C=CCNc1cc(C)oc(=O)c1C(=O)CC | 0.73 | -2
Cc1nnc(NC(=O)CCn2c(=O)oc3ccccc32)s1 | 2.9 | -1.7
CCCC(=O)Nc1ccc2oc(=O)ccc2c1 | 0.43 | 1.9
CCCOc1ccc(C2C(C(=O)c3cc4ccccc4o3)=C(O)C(=O)N2c2cc(C)on2)cc1 (stereo not given) | 1.1 | -0.07
COc1ccc(C(=O)CSc2nnc(CNC(=O)c3ccccc3F)n2C)cc1OC | 0.81 | 1.4
Cc1[nH]c2ccccc2c1C(=O)CSc1nncn1C | 0.65 | 0.81
O=C(O)c1ccc(/C=N/O)cc1 | 1.5 | 0.08
C(=N\NCc1ccccc1)/c1ccc2nccnc2c1 | 0.99 | 0.05
COc1ccc(C(=O)c2cnc[nH]2)cc1 | 0.98 | 0.72
COc1ccc(C(=O)Nc2nnc(CCS(=O)(=O)c3ccc(C)cc3)s2)cc1 | 1.6 | -0.1
O=C(NNS(=O)(=O)c1ccccc1[N+](=O)[O-])c1cccc(Br)c1 | 0.92 | 1.5
CCCCC(C(=O)O)C(C)CC(=O)Nc1cccc(C(=O)O)c1 (stereo not given) | 0.18 | -1.4
Cc1cc(C(=O)NC(C)C2CCCO2)c(C)o1 (stereo not given) | 2.1 | 0.18
NS(=O)(=O)c1ccc2c(c1)oc(=O)c1cc(S(N)(=O)=O)ccc12 | 0.9 | -0.14
CC(C)Cc1cc(C(=O)N2CCC(N3CCC(C(=O)NC4CC4)CC3)CC2)n[nH]1 | 0.27 | 1.2
Clc1cccc(Oc2cnc3ccccc3n2)c1 | 0.26 | 1.7
CCN1C(=O)[C@@H]2[C@H](C1=O)[C@@H]1C(=O)Nc3ccccc3C(=O)N1[C@@H]2c1ccccc1 | 0.75 | -0.63
CCOc1ccc2nc(NC(=O)C3CCN(C(=O)c4ccco4)CC3)sc2c1 | 0.36 | 2.3
COc1cccc(CN2C(=O)CCC2(C)C(=O)NC2CCCCCC2)c1 (stereo not given) | 0.95 | -0.91
O=C(O)/C=C/c1ccccc1[N+](=O)[O-] | 0.07 | 0.13

Bioassay records from PubChem.

Not all compounds are listed (hit frequency here may not be typical).
